PV pol inh: poliovirus RdRp elongation inhibitors, primary screen, biochemical, fluorescence polarization, total intensity. % elongation, % (compound at 16.7 µg/mL). 150,000 tested, 0.66% active. AID 588519, 2011. Genome polyprotein (Poliovirus type 1 (strain Mahoney)), P03300. poliovirus polymerase elongation; stronger effect = lower value; in the data active = % elongation below about 90%; note: some results filed as inactive read as strong as hits
Target sequence (P03300 1749-2209 limits assumed): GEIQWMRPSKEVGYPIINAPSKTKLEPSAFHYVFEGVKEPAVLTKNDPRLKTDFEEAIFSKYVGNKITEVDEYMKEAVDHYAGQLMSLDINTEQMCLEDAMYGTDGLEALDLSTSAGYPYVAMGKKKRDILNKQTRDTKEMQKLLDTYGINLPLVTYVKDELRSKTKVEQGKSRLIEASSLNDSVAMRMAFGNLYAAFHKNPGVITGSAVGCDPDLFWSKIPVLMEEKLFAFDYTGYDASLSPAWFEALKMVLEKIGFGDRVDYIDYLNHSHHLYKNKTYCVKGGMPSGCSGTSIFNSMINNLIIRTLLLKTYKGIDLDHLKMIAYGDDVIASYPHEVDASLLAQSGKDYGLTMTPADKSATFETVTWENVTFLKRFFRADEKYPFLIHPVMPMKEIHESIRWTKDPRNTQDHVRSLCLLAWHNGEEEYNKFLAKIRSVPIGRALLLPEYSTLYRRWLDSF
PV pol inh intensity: recorded beside PV pol inh, whose call it bears; % elongation; measured here: total intensity read-out; formula for this scale not given here;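 total fluorescence in place of polarization; lower means less elongation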
The depositor's hits bear a star.

SMILES	PV pol inh	PV pol inh intensity
CSc1ccc(CCNC(=O)CCCn2nc(C)c3sc4ccccc4c3c2=O)cc1	109	106
COc1cccc(-c2cc(C(=O)Nc3ccn(Cc4ccc(C)cc4)n3)no2)c1	108	113
CCOC(=O)c1[nH]c(C)c(CCC(=O)N2CCN(c3cc(C)ccc3C)CC2)c1C	100	96
CSc1cccc(NC(=O)N2CCN(c3cc(-c4noc(C)n4)ccc3C)CC2)c1	106	106
COC(=O)c1cc2c(cc1NC(=O)c1cnn(-c3ccc(C)cc3)c1-n1cccc1)OCO2	104	116
Cc1ncc(COC(=O)C(C)C)c2cc(C(=O)Nc3ccccc3C(F)(F)F)c(=O)oc12	111	94
CCOC(=O)c1c(C)[nH]c(C)c1S(=O)(=O)N1CCC(C(=O)N2CCN(c3ccccc3F)CC2)CC1	108	110
Cc1ccc(S(=O)(=O)c2c(C)nn(-c3ccccc3)c2OC(=O)c2ccccc2F)cc1	109	112
O=C(COc1ccc(F)cc1)NCCc1nc2ccccc2[nH]1	105	107
CN1CCN(CCCNC(=O)c2cnn(-c3ccccc3)c2-n2cccc2)CC1	103	101
CCOC(=O)c1cnc2c(Cl)cc(Cl)cc2c1Nc1cc(C(=O)O)ccc1C	106	103
CCOC(=O)c1ccccc1NC(=O)N(Cc1ccc(C)cc1)Cc1cccn1-c1nnc(N2CCCC2=O)s1	109	107
O=C(NCc1ccc(Cl)cc1)C(=O)Nc1cccc(Br)c1	105	99
Cc1ccc(Cn2c3ccccc3c3cnn(CC(=O)Nc4cc(Cl)ccc4C)c(=O)c32)cc1	112	111
CCCOC(=O)c1cccc(NC(=O)CSc2nnc3cc(C)c4ccccc4n23)c1	104	102
COc1ccc(-n2c(-c3ccc(C)cc3)cc3c2CC(C)(C)CC3=O)c(OC)c1	109	109
COc1cc(OC)c(NC(=O)CSc2cc(=O)n(C)c3ccc(Cl)cc23)cc1Cl	106	112
Fc1ccccc1OCc1nc(-c2ccc(-n3cccc3)cc2)no1	104	107
COc1cc(Cl)c(C)cc1NS(=O)(=O)c1c(C)nc2sccn2c1=O	107	99
CCC(Sc1nc2ccncc2[nH]1)C(=O)Nc1cc(C)ccc1C (configuration not stated)	104	107
CC(=O)c1cc2c(cc1N/C(=N/S(=O)(=O)c1ccc(C)cc1)c1ccc(F)cc1)OCO2	104	112
Cc1nn(S(=O)(=O)c2ccccc2)c(C)c1S(=O)(=O)N1CCC(C)CC1	112	110
COc1ccc(-c2cc(C(=O)NCCc3ccccc3)c3cc(C(C)C)ccc3n2)cc1	103	102
O=C(c1cc2ccc3cccnc3c2[nH]1)N1CCCCC1	101	111
O=C(Cn1c(=O)oc2cc(S(=O)(=O)N3CCCCC3)ccc21)NCc1ccc(F)cc1	102	101
SMILES	PV pol inh	PV pol inh intensity
CCN(Cc1ccccc1)C(=O)Cn1c(=O)cc(C)c2c(C)nn(-c3cccc(F)c3)c21	107	113
Cc1cc(C)cc(NC(=O)CN2C(=O)CSc3ccc(S(=O)(=O)N4CCCC4)cc32)c1	113	110
CCOc1c(Cl)cc(Cl)cc1CNCCSc1nnnn1C	102	106
CC(C)Oc1ccc(CNC(=O)C2=Cc3ccccc3OC2)cc1	110	108
CCOc1cc(S(=O)(=O)NCCc2c(C)[nH]c3ccc(C)cc23)ccc1F	101	101
O=C(Nc1ccccc1Br)N1CCN2CCCCC2C1 (configuration not stated)	105	109
Cc1cc(C)c(NC(=O)Nc2ccc3snnc3c2)c(C)c1	110	113
CCCN(C(=O)c1noc2c1COc1ccc(C)cc1-2)c1ccc(Cl)c(Cl)c1	111	106
COC(=O)c1ccccc1NS(=O)(=O)c1cc2c(cc1C)N(C)CCO2	97	101
CCOC(=O)c1c(S(=O)(=O)NCC(=O)N(C)c2ccc(C)cc2)c(C)n(C)c1C	104	101
O=C(NCCc1nc2ccccc2n1Cc1ccc(Cl)cc1Cl)c1ccco1	102	101
CCOC(=O)c1cnc(NCc2ccc(Cl)cc2)c2ccccc12	112	117
Cc1ccccc1C(=O)OCc1cc(=O)n2nc(C3CCCCC3)sc2n1	105	107
CC(C)c1nnc(N2C(=O)c3oc4ccccc4c(=O)c3C2c2ccccc2F)s1 (configuration not stated)	108	110
Cc1ccc(Cn2c(C)c(CNCc3ccccc3F)c(C(=O)O)c2C)cc1	106	109
Cc1ccc(Nc2nn3c(=O)c4cc5c(cc4nc3s2)OCO5)cc1Cl	105	105
Cc1cc(C)cc(NC(=O)C(Cc2ccccc2)NS(=O)(=O)c2ccc3c(c2)CCC(=O)N3)c1 (configuration not stated)	105	113
COc1ccc(S(=O)(=O)NCC(c2ccco2)N2CCN(c3ccccc3)CC2)cc1OC (configuration not stated)	107	113
CCOC(=O)c1cccc(NC(=O)c2oc3c(c2C)-c2nn(CC)cc2CC3)c1	64*	70*
COc1ccc(-c2cn3nc(SCC(=O)Nc4ccc(C)c(Cl)c4)ccc3n2)cc1	110	106
Cc1cc(Nc2cccc(C(=O)O)c2)n2nc(C)nc2n1	105	100
O=C(NC(=O)c1ccccc1)Nc1ccc(-c2cc(C(F)(F)F)nn2-c2ccccc2)cc1	107	104
COc1cc(Cl)c(C)cc1NC(=O)c1cc2c(Cl)nc3ccc(C)cc3c2s1	105	105
Cc1c(C(=O)OC2CCCCC2)[nH]c2c1C(=O)CC(c1ccc(F)cc1)C2 (configuration not stated)	103	103
CCCCc1nn2c(=O)cc(COC(=O)c3ccc(NC(=O)C(CC)CC)cc3)nc2s1	111	103

Structural class: those above with a CF3 group (two)
SMILES	PV pol inh	PV pol inh intensity
Cc1ncc(COC(=O)C(C)C)c2cc(C(=O)Nc3ccccc3C(F)(F)F)c(=O)oc12	111	94
O=C(NC(=O)c1ccccc1)Nc1ccc(-c2cc(C(F)(F)F)nn2-c2ccccc2)cc1	107	104

Following part:
SMILES	PV pol inh	PV pol inh intensity
Cc1cc(OCCn2cc(C(=O)c3ccco3)c3ccccc32)ccc1Cl	106	111
COc1ccc(-n2c3c(cc(-c4nc(-c5ccc(C)cc5)cs4)c2=O)C(=O)CC(C)(C)C3)cc1	108	108
COc1ccccc1CNC(=O)c1cccn1-c1nnc(N2CCCCC2)s1	100	107
COc1ccc(-c2noc(CSc3nc4ccccc4[nH]3)n2)cc1	107	110
O=C(CCn1cnnn1)Nc1ccccc1	108	109
O=C(CSc1nnc(-c2cccs2)o1)Oc1ccccc1	94	97
COc1ccc(-c2cn3c(n2)sc2cc(C(=O)NC4CCCCCC4)ccc23)cc1	111	107
CCC1CCCCN1CCCNC(=O)c1cc2c(Cl)nc3ccc(C)cc3c2s1 (configuration not stated)	88	96
CCOC(=O)c1c(C)oc2nc(C)nc(N3CCN(c4cccc(C)c4C)CC3)c12	110	111
CC(=O)N1CCCC1c1nc2ccccc2n1Cc1ccccc1Cl (configuration not stated)	108	116
CCCC1=Nc2cc(C(=O)NCC(C)c3ccccc3)ccc2Sc2ccccc21 (configuration not stated)	112	110
Cc1ccccc1Cn1c(Oc2ccccc2F)nc2c1c(=O)n(C)c(=O)n2C	102	97
COc1ccc(OC)c(S(=O)(=O)NCCc2sc(C)nc2C)c1	99	103
COc1ccc(C2CC(=O)N(CC(=O)Nc3cc(C)ccc3C)c3ccccc3S2)cc1 (configuration not stated)	110	113
CN1C(=O)Cc2cc(S(=O)(=O)CCC(=O)Nc3ccccc3)ccc21	-22*	14*
CCc1ccc(-n2c(=O)c3c4c(sc3n(Cc3ccccc3C#N)c2=O)CCCC4)cc1	112	103
Cc1cccc(-c2nc(C)c(CCNC(=O)c3cccs3)s2)c1	111	109
Cc1ccc(C)c(Nc2nnc(-c3ccc(C)c(S(=O)(=O)NCC4CCCO4)c3)c3ccccc23)c1 (configuration not stated)	108	113
COC(=O)c1c(NC(=O)c2nc(SCc3ccccc3C)ncc2Cl)sc2c1CCCC2	111	110
O=C(NCc1ccc(Cl)cc1)c1ccc(Cn2c(=O)c3cccn3c3cccnc32)cc1	102	106
Cc1ccc(-c2noc(C3CC(=O)N(c4ccc5c(c4)OCCO5)C3)n2)cc1 (configuration not stated)	112	119
Cc1ccccc1Nc1c(-c2ccc(Br)cc2O)nc2sccn12	107	108
COc1ccc(CN2CCN(S(=O)(=O)c3ccccc3)CC2)c(OC)c1	99	101
COc1cccc(CNC(=O)CCCn2c(=O)c3cccn3c3cccnc32)c1OC	113	111
CCN(CC)S(=O)(=O)c1ccc(NC(=O)CCc2c(C)nc3cc(-c4ccc(Cl)cc4)nn3c2C)cc1	107	107
SMILES	PV pol inh	PV pol inh intensity
COc1ccc(-c2cc(C(F)(F)F)nc(S(=O)(=O)CCCC(=O)Nc3cccc(O)c3)n2)cc1OC	101	100
CCOC(=O)c1cc(S(=O)(=O)N2CCN(c3cc(C)ccc3C)CC2)[nH]n1	104	102
COc1ccccc1-c1nc2c(c(SCC(=O)Nc3ccc(C)c(C)c3)n1)Cc1c(CO)cnc(C)c1O2	108	104
CCCS(=O)(=O)N1CCC(N2CCN(Cc3ccc(F)cc3)C(=O)C2=O)CC1	106	106
Cc1cc(NC(=O)CCNS(=O)(=O)c2ccc3c(c2)CCCC(=O)N3)ccc1Br	105	109
Cc1ccc(CSc2nc3cccnc3n2Cc2ccc(C(=O)NCCc3cccs3)cc2)cc1	114	99
CC1=C(c2ccc(C)c(C)c2)S(=O)(=O)N=C1N1CCC(C(=O)N2CCCCC2)CC1	105	98
Cc1nc2cc(-c3ccccc3)nn2c(C)c1CCC(=O)N1CCN(c2ccccc2)CC1	107	113
CC1=C(c2ccc(C(C)C)cc2)S(=O)(=O)NC1=NCc1ccccc1Br	103	111
Cc1cc(NC(=O)c2ccco2)cc(-c2nc3cc(Cl)ccc3o2)c1O	106	107
COc1ccccc1C(=O)Nc1ccccc1OCc1cc(=O)n2c(C)csc2n1	109	111
Cc1ccc(NC(=O)CN2C(=O)CCn3nc(-c4cccn4C)cc32)cc1	107	106
COc1cc(C)ccc1OCCSc1nnc(-c2cccs2)o1	111	109
COc1ccc(-n2ccnc2SCC(=O)Nc2cccc(OC)c2)cc1	107	99
COc1ccc(CNC(=O)C(=O)Nc2cccc(C)c2C)cc1	101	104
O=C(NCCCN1CCN(c2ccc(F)cc2)CC1)c1ccc2nc(CCc3ccccc3)oc2c1	111	111
Brc1ccc(Nc2c3c(nc4nncn24)CCC3)cc1	111	112
COc1ccc(N2CCN(C(=O)c3nc(SC)ncc3Cl)CC2)cc1	120	118
CC(=O)Nc1ccccc1-c1nc2ccccc2n(CC(=O)Nc2ccc(C)c(Cl)c2)c1=O	108	108
CCc1nn2c(=O)cc(COC(=O)c3cccc(NC(=O)COc4ccccc4)c3)nc2s1	110	109
Cc1ccc(S(=O)(=O)n2nc(C)c(S(=O)(=O)N3CCC(C)CC3)c2C)cc1	103	110
O=C(CSc1nc(=O)n(CCN2CCOCC2)c2c1CCC2)Nc1ccccc1	104	108
CCN(CC)c1cc(C)c2cc(NC(=O)c3ccccc3Cl)ccc2n1	100	103
O=C(Nc1nc2ccc(S(=O)(=O)N3CCCC3)cc2s1)c1ccc(F)cc1	110	114
COc1ccc(OC)c(NC(=O)c2cc(S(=O)(=O)NCCc3ccc(Cl)cc3)ccc2F)c1	109	114
SMILES	PV pol inh	PV pol inh intensity
COCCn1c(=O)[nH]c2cc(C(=O)N3CCN(c4ccccc4)CC3)ccc2c1=O	104	104
CCCCC(=O)OC1=C(C(=O)c2ccccc2)N(C)S(=O)(=O)c2ccccc21	113	104
Cc1cccc(C(=O)Nc2ccc3nc(SCC(=O)N4CCCC4)sc3c2)c1	104	110
Cc1ccc(Cl)cc1N1CCN(C(=O)CCCn2c(=O)[nH]c3ccc(Br)cc3c2=O)CC1	103	106
CCn1c(SCc2ccccc2Cl)nc(=O)c2c(C(=O)OC)cc(C3CC3)nc21	103	108
CCN(CC)C(=O)c1ccc(NC(=O)Cn2nc(-c3ccc(C)cc3)c3ccccc3c2=O)cc1	110	111
Cc1ccc2cccc(NC(=O)COc3ccccc3Cl)c2n1	102	99
Cc1ccc(-c2cc(C(F)(F)F)n3nc(C(=O)Nc4ccc(Cl)c(C(F)(F)F)c4)cc3n2)cc1	107	109
O=C(CN1C(=O)CCSc2ccccc21)Nc1ccccc1F	109	112
COc1ccc(-c2nc3ccccc3o2)cc1NC(=O)c1ccc(OCC(C)C)cc1	105	109
COc1cccc(N2CCN(S(=O)(=O)c3cc(-c4cc(C)no4)ccc3C)CC2)c1	104	101
COc1ccc(OC)c(NC(=O)CCNC(=O)Cn2cnc3ccccc3c2=O)c1	106	109
CCOc1ccccc1CNC(=O)c1cc2n(n1)CCCN(Cc1ccc(C)cc1)C2=O	108	108
CCOc1ccccc1NC(=O)Cn1c(=O)n(Cc2nc(C)no2)c(=O)c2ccccc21	116	115
COCCn1c(CCC(=O)Nc2cc(C)ccc2C)nc2cccnc21	109	108
Cc1ccc(Cc2nc3ccccc3nc2SCC(=O)NCc2ccc(F)cc2)cc1	109	107
Cc1ccc2nc(-c3ccc(NC(=O)Cc4ccccc4)cc3)sc2c1	104	106
COc1ccc(-c2cn3nc(N4CCC(C(=O)Nc5ccc(Cl)cc5C)CC4)sc3n2)cc1	103	107

Compounds shown so far that have two or more sulfur atoms (13):
SMILES	PV pol inh	PV pol inh intensity
CSc1ccc(CCNC(=O)CCCn2nc(C)c3sc4ccccc4c3c2=O)cc1	109	106
COc1cc(Cl)c(C)cc1NS(=O)(=O)c1c(C)nc2sccn2c1=O	107	99
Cc1nn(S(=O)(=O)c2ccccc2)c(C)c1S(=O)(=O)N1CCC(C)CC1	112	110
Cc1cc(C)cc(NC(=O)CN2C(=O)CSc3ccc(S(=O)(=O)N4CCCC4)cc32)c1	113	110
O=C(CSc1nnc(-c2cccs2)o1)Oc1ccccc1	94	97
COc1ccc(OC)c(S(=O)(=O)NCCc2sc(C)nc2C)c1	99	103
Cc1cccc(-c2nc(C)c(CCNC(=O)c3cccs3)s2)c1	111	109
COC(=O)c1c(NC(=O)c2nc(SCc3ccccc3C)ncc2Cl)sc2c1CCCC2	111	110
Cc1ccc(CSc2nc3cccnc3n2Cc2ccc(C(=O)NCCc3cccs3)cc2)cc1	114	99
COc1cc(C)ccc1OCCSc1nnc(-c2cccs2)o1	111	109
Cc1ccc(S(=O)(=O)n2nc(C)c(S(=O)(=O)N3CCC(C)CC3)c2C)cc1	103	110
O=C(Nc1nc2ccc(S(=O)(=O)N3CCCC3)cc2s1)c1ccc(F)cc1	110	114
Cc1cccc(C(=O)Nc2ccc3nc(SCC(=O)N4CCCC4)sc3c2)c1	104	110

Some of the compounds tested. The share of hits here may be higher or lower than overall.
